# Assay outcomes: PubChem, National Center for Advancing Translational Sciences (NCATS)
# VDR inh: blocks the human vitamin D receptor; VDR-SRC2-3 peptide fluorescence polarization, 2 h; Potency, µM, for the others: max response, negative = inhibition, hits mostly inhibitors; hit rate 0.93% among 400,000; AID 504847; active means well fitted inhibition curve with a large enough effect; inconclusive means small, poorly fitted or top-dose-only effect, or another doubt; inactive means no such curve, though single readings can be large or run the other way; further: series mostly up to about 120 µM
# Target sequence (P11473 whole entry, looked up): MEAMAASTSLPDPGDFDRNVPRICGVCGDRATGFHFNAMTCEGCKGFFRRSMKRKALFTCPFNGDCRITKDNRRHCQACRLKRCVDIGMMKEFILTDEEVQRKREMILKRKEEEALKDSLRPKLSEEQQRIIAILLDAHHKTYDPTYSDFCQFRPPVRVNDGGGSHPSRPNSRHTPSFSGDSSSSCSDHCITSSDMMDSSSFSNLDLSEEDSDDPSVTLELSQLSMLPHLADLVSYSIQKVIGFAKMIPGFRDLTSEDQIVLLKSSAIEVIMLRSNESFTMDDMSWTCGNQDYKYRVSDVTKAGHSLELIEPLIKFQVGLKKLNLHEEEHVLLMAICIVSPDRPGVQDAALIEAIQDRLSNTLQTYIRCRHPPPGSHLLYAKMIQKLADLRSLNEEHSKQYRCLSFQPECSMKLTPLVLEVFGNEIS
#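 Inhibition of the VDR/SRC2-3 peptide interaction is quantified by fluorescence polarization. Compounds (23 nl, pintool) incubate with the reagents for 2 hours at ambient room temperature.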
# * marks the source's active call; other numbers are inactive results; ? = inconclusive; & = joins results of further samples; [ ] = another dose, or the depositor's remark. On the % scale 0 is the no-effect control and ±100 the full control effect; potency means the concentration at half of the fitted maximal effect. Some of the compounds tested. The share of hits here may be higher or lower than overall.
SMILES,VDR inh
COc1ccc(N(CC(=O)Nc2ccccc2C(=O)N2CCOCC2)S(=O)(=O)c2ccc(F)cc2)cc1,-11%
CCOC(=O)c1ccc[n+](C(C)C(=O)c2ccc(-c3ccccc3)cc2)c1 (stereo not drawn),0%
CCOC(=O)c1sc(NC(=O)/C=C/c2cnn(C)c2C)c(C(=O)OC(C)C)c1C,-5%
CC(=O)NC(C)C(=O)OCc1ccc(Cl)cc1Cl (stereo not drawn),10%
CN(Cc1ccccc1)C(=O)c1ccc(NC(=O)C2CCN(C(=O)OC(C)(C)C)CC2)cc1,-3%
CCOC(=O)CSc1nc2ccc(NC(=O)c3ccc(Cl)cc3)cc2s1,-1%
O=C1CCCc2c1nn(-c1ccccc1)[n+]2[O-],12%
CCOC(=O)c1c(S(=O)(=O)NCC(=O)Nc2cccc(C)c2)c(C)n(C)c1C,34%[activator]
CCCS(=O)(=O)c1c(S(=O)(=O)CCC)c2c(N)cccn2c1C(=O)c1ccccc1,5%
O=C(O)c1cccc(NC(=O)c2cn(-c3ccccc3)nc2-c2ccc([N+](=O)[O-])cc2)c1,-11%
Cc1cc(SCC(=O)NCc2ccccc2)nc(=O)[nH]1,6%
CCCC(=O)N(c1ccc2oc(C)c(C(C)=O)c2c1)S(=O)(=O)c1ccc(C)cc1,-2%
CC(=O)OCC1=C(C(=O)O)N2C(=O)C(NC(=O)COc3ccc(F)cc3)C2SC1 (stereo not drawn),7%
CN(C)CCc1c[nH]c2ccc(Cn3cncn3)cc12,14%
Cc1cc(F)ccc1NC(=O)C1CCN(S(=O)(=O)c2ccc3c(c2)CCCC(=O)N3)CC1,0%&12%
CCN(CC)c1ccc(/C=N/n2c(=S)[nH]nc(C)c2=O)cc1,-11%
CN1CC(=O)N2C(Cc3c([nH]c4ccccc34)[C@H]2c2ccc3c(c2)OCO3)C1=O (stereo partly drawn),1%
CCCC12CN3CCN(CC(C3)/C1=N\NC(=O)c1ccccc1Cl)C2,-2%
CCn1cc(C(=O)NC2CCCCC2)c(=O)c2cc(S(=O)(=O)N(C)C)ccc21,-4%
O=C(Nc1cc(Cl)cc(Cl)c1)N1CCN(C(=O)C2CCCO2)CC1 (stereo not drawn),-2%
Cc1ccc(S(=O)(=O)Nc2ccccc2N(C)S(=O)(=O)c2ccc(C)cc2)cc1,-7%
CSCCC(NS(=O)(=O)c1ccc2c(c1)c(=O)n(C)c(=O)n2C)C(=O)NC1CCN(Cc2ccccc2)CC1 (stereo not drawn),4%
COc1ccc(NC(=O)CN(Cc2ccccc2)S(C)(=O)=O)cc1OC,-21%
Cc1cc(C)cc(NC(=O)C(=O)NCCCN2CCOCC2)c1,6%&-19%
Nc1cccc(C(=O)c2ccccc2C(=O)O)c1,10%
Cc1cccc(NC(=S)N(CCN(C)C)C(C)c2ccccn2)c1 (stereo not drawn),11%
O=C(COc1ccc(Cl)cc1)Nc1ccccc1OCc1cc(=O)n2ccccc2n1,9%
O=C(CCSCc1ccccc1F)N1CCN(c2ccc(F)cc2)CC1,5%
CCc1ccccc1NS(=O)(=O)c1ccc2c(c1)NC(=O)CC(=O)N2,9%
CCOC(=O)N1CCC(N2C(=O)c3ccccc3C2Nc2c(C)cccc2C)CC1 (stereo not drawn),-15%
CC(C)C(NC(=O)c1ccco1)C(=O)NC1CCCCCC1 (stereo not drawn),-2%
Cc1ccccc1CNC(=O)Nc1ccc2c(c1)N(C)C(=O)c1ccccc1S2,-2%
Cc1nnc2c(N3CCN(c4ccc(F)cc4)CC3)nc3ccc(C(=O)c4ccccc4)cc3n12,4%
O=C(CC1Sc2ccccc2NC1=O)NNc1ccc(Cl)c(Cl)c1 (stereo not drawn),-3%
COCCn1c(SCc2ccc(C)cc2)nc2c1c(=O)[nH]c(=O)n2C,-15%
COc1cc(C2CC(=O)c3c([nH]c(C(=O)OC4CCCC4)c3C)C2)cc(OC)c1OC (stereo not drawn),-3%
CCc1ccc(NC(=O)Cn2c(=O)n(Cc3ccccc3)c(=O)c3oc4ccccc4c32)cc1,10%
CC1CC(OCC(O)CN2CCOCC2)CC(C)(C)C1 (stereo not drawn),-4%
CC(/C=N/NC(=O)CN1CCN(Cc2ccc(Cl)cc2)CC1)=C\c1ccco1,-3%
C#CCNC(=O)C1=C[C@H](c2ccc(Br)cc2)C[C@H](OCc2ccc(CO)cc2)O1,-12%
COCCn1nnnc1CN1CCC(C)CC1,-15%
CC1CCCCN1S(=O)(=O)c1ccc([N+](=O)[O-])cc1 (stereo not drawn),-10%
O[C@@H]1CO[C@H]2C1OC[C@@H]2O (stereo partly drawn),-23%
COc1ccc(-c2nc(CCNC(=O)c3cccs3)cs2)cc1,-6%&-20%
COc1ccccc1C1(O)CCN(C(=O)c2cccs2)CC1,3%

# An excerpt from above in order of the VDR inh value, lowest first.
SMILES,VDR inh
O[C@@H]1CO[C@H]2C1OC[C@@H]2O (stereo partly drawn),-23%
CC1CCCCN1S(=O)(=O)c1ccc([N+](=O)[O-])cc1 (stereo not drawn),-10%
CC1CC(OCC(O)CN2CCOCC2)CC(C)(C)C1 (stereo not drawn),-4%
CC(/C=N/NC(=O)CN1CCN(Cc2ccc(Cl)cc2)CC1)=C\c1ccco1,-3%
Cc1nnc2c(N3CCN(c4ccc(F)cc4)CC3)nc3ccc(C(=O)c4ccccc4)cc3n12,4%
CCc1ccc(NC(=O)Cn2c(=O)n(Cc3ccccc3)c(=O)c3oc4ccccc4c32)cc1,10%

# Continuation:
SMILES,VDR inh
CCN(CC)CCSc1nc(O)c(Cc2ccccc2)c(=O)n1-c1ccccc1,5%
Cc1cccc(C)c1NCC(=O)N1CCN(Cc2ccccc2)CC1,-2%
Cc1ccc(Cl)cc1N1CCN(S(=O)(=O)c2c(C)[nH]c(C)c2C(=O)N2CCCCC2)CC1,-26%
COc1cc2[nH]c(C(=O)N3CCN(C)CC3)cc2c(OC)c1OC,5%
CC(=O)N1CCN(C(=O)CNC(=O)c2cccs2)CC1,-6%
COc1ccc(N2C(=O)CC(Sc3n[nH]c(-c4ccccc4)n3)C2=O)cc1 (stereo not drawn),-21%
CCN1CCN(C(=O)/C=C/c2ccc(C)cc2)CC1,20%
C/C(CCC1CC(C)OC1=O)=N\NC(N)=S (stereo not drawn),-17%
COc1cc2cc(C(=O)O)[nH]c2c(OC)c1OC,-2%
CCc1nc(SC)[nH]c(=O)c1C,-1%
CCNC(=O)CC1C(=O)N(c2ccc(F)cc2)C(=O)N1CCc1sccc1C (stereo not drawn),8%
O=C(CSc1nc2ccccc2c(=O)n1CCCN1CCOCC1)Nc1cccc(S(=O)(=O)N2CCCCCC2)c1,6%
Clc1ccc2oc(-c3ccccn3)nc2c1,-6%
O=C(NC(=S)N1CCN(C2CCCCC2)CC1)c1ccccc1,-9%
O=C(NCc1ccccn1)c1cc(-c2ccccc2)on1,3%
O=C(Nc1nc(-c2ccccn2)cs1)C1COc2ccccc2O1 (stereo not drawn),-2%
Cc1ncc([N+](=O)[O-])n1CCOC(=O)c1ccccc1,-6%
CC(=O)Nc1nonc1-c1nnc(SCC(=O)Nc2ccc(C)cc2)n1-c1ccccc1,8%
Cc1ccc(C)c(-n2cc(CNC(C)Cn3cncn3)c(-c3ccccc3)n2)c1 (stereo not drawn),27%
COc1ccc(C2=NN(CC(=O)NCCc3ccc(OC)c(OC)c3)C(=O)CC2)cc1,14%
O=C(O)c1ccccc1C(=O)N1CCN(S(=O)(=O)c2cccc(C(F)(F)F)c2)CC1,13%
Cc1cccc(OCCC(=O)Nc2ccc(N3CCOCC3)cc2N2CCOCC2)c1,-1%
CN1CCN(C(=O)c2cc(COc3ccc(F)cc3Cl)on2)CC1c1ccccc1 (stereo not drawn),10%
COc1ccc(C(=O)N2CCC[C@@]3(CCN(C(=O)NC(C)C)C3)C2)cc1,-2%
O=S(=O)(c1ccccc1)N1CCN(c2ccnc3cc(Cl)ccc23)CC1,17%
O=c1[nH]c(-c2ccc(F)cc2)nc2c1sc(=S)n2-c1ccccc1,6%
O=C(Nc1cccnc1)c1ccc(Oc2ccccc2)cc1,12%
O=C(NNC(=O)c1ccc2ccccc2c1)c1ccc(Cl)c(Cl)c1,-20%
CC(C)c1ccc(-c2nnn(Cc3nc4ccccc4s3)n2)cc1,-13%
Cc1nc2ccccc2c2c1C(=O)N(C(C)C)C2=O,11%

# Reprinted at random: two entries already listed, in no set order.
SMILES,VDR inh
Cc1nc2ccccc2c2c1C(=O)N(C(C)C)C2=O,11%
CC(C)C(NC(=O)c1ccco1)C(=O)NC1CCCCCC1 (stereo not drawn),-2%

# Following part
SMILES,VDR inh
Cc1cc(C)cc(NC(=O)C(c2ccccc2)N2CCCC2)c1 (stereo not drawn),-11%
CN(C)c1ccc(/C=N/n2c(-c3ccccc3Br)n[nH]c2=S)cc1,-16%
Cc1ccc(OCC(=O)N2CCN(S(=O)(=O)c3ccc(Cl)cc3)CC2)c([N+](=O)[O-])n1,7%
O=C(C=Cc1ccc2c(c1)OCO2)c1ccccc1,40µM*
CCCN(C(=O)c1coc(=O)c2ccccc12)c1ccccc1C,-18%
COc1ccc(NC(=O)c2ccc([N+](=O)[O-])o2)cc1,12%
CCCCNC(=O)CCC(=O)N1CCN(C(c2ccccc2)c2ccccc2)CC1,11%
O=C(Nc1ccccc1C(=O)Nc1ccccc1C(=O)O)c1ccccc1,-13%
COc1ccc(/C=C/C(=O)NCCc2ccc(OC)c(OC)c2)cc1,-14%
CC(C)NC(=O)CN(C)S(=O)(=O)c1ccc(F)cc1,-4%
CN(Cc1cccc(Cl)c1)C(=O)C1CCN(C(=O)Nc2ccccc2)CC1,-14%
O=S(=O)(NC1=NCCCCC1)c1ccc(Cl)cc1,-16%
CCN1C(=O)c2cccc3c(S(=O)(=O)NCc4ccco4)ccc1c23,?
c1coc(-c2nc3c([nH]2)CCc2nonc2-3)c1,-11%
CC(=O)Nc1c(Cl)cc2c(c1Cl)Cc1cc(C#N)ccc1-2,-9%
CC(=O)c1c(COC(=O)c2ccccc2)nc2ccccc2[n+]1[O-],-2%
Clc1ccc(CNC23CN4CN(CN(C4)C2)C3)c(Cl)c1,-6%
CN(C)Cc1cc(C(C)(C)c2cc(CN(C)C)c(O)c(CN(C)C)c2)cc(CN(C)C)c1O,3%
CCCCCc1nnc(N)s1,-1%
COc1ccc(CNC(=O)Cn2c(=O)n(CCC(=O)N3CCCCC3)c(=O)c3sccc32)cc1,-2%
CCC(c1nnnn1Cc1ccc2c(c1)OCO2)N1CCN(c2ccc(OC)cc2)CC1 (stereo not drawn),12%
Cc1ccc(NC(=O)NCc2ccc3c(c2)CCN3C(=O)c2ccccc2)c(Cl)c1,15%
CC(C)Sc1nc2c(c(=O)[nH]c(=O)n2C)n1CC(O)COc1ccccc1 (stereo not drawn),3%
O=C(c1ccco1)N1CCN(C(=S)Nc2ccccc2C(F)(F)F)CC1,-15%
O=C(CSc1nnc(CNc2ccc(F)cc2)n1Cc1ccco1)N1CCCC1,2%
COc1ccc(-c2cc(-c3cccnc3)c(C#N)c(N)n2)cc1,10%
CCN(CC)C(=O)CSc1nc(N)c(C#N)c(-c2cccs2)c1C#N,-2%
CCN(Cc1ccccc1)C(=O)Cn1c(=O)oc2ccccc21,-3%
OCc1nc2ccccc2n1CC(O)COc1ccccc1 (stereo not drawn),-1%
COCCNc1nc2c(c(=O)n(C)c(=O)n2C)n1Cc1cccc(C(F)(F)F)c1,5%
COCc1nnc(NC(=O)CSc2ccc(C)cc2)s1,-20%
COc1ccc(OC)c(CN2CCN(C(=O)c3ccco3)CC2)c1,17%
O=S(=O)(Nc1c(S(=O)(=O)c2ccccc2)c2nc3ccccc3nc2n1C1CCCCC1)c1ccccc1,?
O=C(NC1CCCCNC1=O)c1ccco1 (stereo not drawn),6%
CCCCN(C(=O)C1CC(=O)N(c2ccc(OC)cc2OC)C1)c1c(N)n(CC(C)C)c(=O)[nH]c1=O (stereo not drawn),-12%
Cc1ccc(NC(=O)c2c([N+](=O)[O-])cnn2C)cc1C,4%
COC(=O)c1ccc(CNCC(O)COc2ccc(-c3ccccc3)cc2)cc1 (stereo not drawn),4%
NC(=O)c1ccc(NC(=O)Nc2ccc3c(c2)OCO3)cc1,1%
Cn1c(CNC(=O)c2ccc(F)cc2)nc2ccccc21,79µM*
O=C(NC1CCCC1)c1ccc2c(=O)n(Cc3ccccc3)c(SCc3ccc([N+](=O)[O-])cc3)nc2c1,-3%
CCOc1ccc(N2C(=O)Nc3ccccc3C2(O)C(=O)NCc2ccc(C)cc2)cc1 (stereo not drawn),-3%
Cc1ccsc1C(=O)NCC(=O)OCc1ccccc1,-22%
Cc1ccc(Nc2cc(C(=O)NCCc3ccccc3)c3ccccc3n2)c(C)c1,-1%
CCOc1cc(/C=N/NC(=O)Cn2nc([N+](=O)[O-])cc2C)cc(Br)c1OCc1ccccc1C,2%
CCOC(=O)c1sc(NC(C)=O)nc1C,-25%
CCOC(=O)Cc1csc(NC(=S)NC(=O)c2cccc([N+](=O)[O-])c2)n1,-9%
N#Cc1c2n(c(=S)n(-c3ccccc3[N+](=O)[O-])c1=O)CCCCC2,-7%
COc1ccc(CNC(=O)Cn2nnc(-c3ccc(NC(=O)C4CCCCC4)cc3)n2)cc1,14%
CNC(=S)N1CCN=C1Nc1nc(C)cc(C)n1,6%
Cc1ccnc(Nc2nc(-c3sc(C)nc3C)cs2)c1,5%
N#CC(C#N)=C1c2cc(S(N)(=O)=O)ccc2-c2ccc(S(N)(=O)=O)cc21,?
CN(Cc1cccs1)C(=O)c1ccc(S(=O)(=O)NCc2ccco2)cc1,-5%

# By substructure: the entries above with a COOH group.
SMILES,VDR inh
O=C(O)c1cccc(NC(=O)c2cn(-c3ccccc3)nc2-c2ccc([N+](=O)[O-])cc2)c1,-11%
CC(=O)OCC1=C(C(=O)O)N2C(=O)C(NC(=O)COc3ccc(F)cc3)C2SC1 (stereo not drawn),7%
Nc1cccc(C(=O)c2ccccc2C(=O)O)c1,10%
COc1cc2cc(C(=O)O)[nH]c2c(OC)c1OC,-2%
O=C(O)c1ccccc1C(=O)N1CCN(S(=O)(=O)c2cccc(C(F)(F)F)c2)CC1,13%
O=C(Nc1ccccc1C(=O)Nc1ccccc1C(=O)O)c1ccccc1,-13%
